Assay outcomes: PubChem, Fisher Drug Discovery Resource Center
NPYLR7 agonist – agonists of mosquito NPYLR7 receptor, primary screen, cell-based, Aedes aegypti, calcium fluorescence, mosquito biting behavior; HEK293T NPYLR7/Galpha15, GCaMP6s calcium fluorescence; activation, % at 10 µM; hit rate 0.15% among 270,000; AID 1259423, 2018; in the data active means activation above about 40%;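 further: 0% = vehicle and 100% = reference agonist at the receptor; some compounds past the cut are filed as inactive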
NPYLR7 agonist max-min – also measured in NPYLR7 agonist; calls as there; activation, %; measured here: Max-Min RFU normalised activation; some inactives read as strong as hits;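 span of the calcium signal over five minutes; 0% = vehicle and 100% = native peptide agonist; compound fluorescence can raise it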
Starred values were filed as active, the others as inactive; & = joins results of further samples.

Fields – NPYLR7 agonist max-min, NPYLR7 agonist
> CC(C)C(=O)N1CCN(Cn2[nH]c(-c3cc(Cl)ccc3Cl)nc2=S)CC1
 : 2, 5
> O=C(C1CCN(S(=O)(=O)c2c(Cl)cccc2Cl)CC1)N(Cc1ccccc1F)C1CC1
 : 1, 5
> CCOC(=O)c1cc(-c2cccc(NC(=O)c3cnn(C)c3Cl)c2)n(-c2ccccc2OC)n1
 : 19, 23
> c1ccc(CCN2CCN(c3nc(-c4ccccc4)nc4c3CCC4)CC2)cc1
 : -6, -3
> CNc1ccc(-c2ccccc2O)cn1
 : -2, -1
> O=C(NNC(=O)c1ccccc1F)c1ccc(F)cc1
 : -1, 2
> C#CCN(CCC(=O)Nc1ccc(N2CCCC2=O)cc1)Cc1cccc(C)n1
 : 2, 4
> CCOC(=O)c1nnc2ccccc2c1N1CCN(CC)CC1
 : 1, 5
> COc1ccccc1/C=C/C=C1/N=C(c2ccc([N+](=O)[O-])cc2)OC1=O
 : -5, -1
> O=C(CCN1C(=O)c2ccccc2C1=O)Nc1ccc(Cl)cc1
 : -8, -3
> Cc1cccc(N2C(=O)/C(=C/c3ccc(-c4ccc(Br)cc4)o3)C=C2c2ccccc2)c1
 : 8, 12
> CN(C)CCN1CCN(c2cc(-c3cccc(CO)c3)nc3ccnn23)CC1
 : -8, -5
> CCOc1ccc(N2CCn3c2nc2c3c(=O)[nH]c(=O)n2C)cc1
 : -2, -1
> FC(F)(F)CNc1n[nH]c(=S)s1
 : 4, 8
> S=C1NC2(CCCC2)Nc2sc3c(c21)CCCC3
 : -10, -5
> O=C(Cc1cccc2ccccc12)NCC(c1ccsc1)N1CCCCCC1 (stereo unspecified)
 : -11, -5
> Cc1cc(Cl)ccc1C(=O)C1CCCN(C(=O)c2cc(=O)c3ccccc3o2)C1 (stereo unspecified)
 : 0, 10
> CC(C(=O)Nc1nccs1)N(C)CC1CCCN1c1cccnn1 (stereo unspecified)
 : 6, 8
> Cc1ccccc1Cn1c(C)c(C(=O)NCc2cccc(Cl)c2)sc1=O
 : 6, 7
> COC(=O)c1c2c(nc3c1c(-c1ccc(C)cc1)nn3C1CCS(=O)(=O)C1)CCC2 (stereo unspecified)
 : 6, 12
> O=C(COc1cccc2ccccc12)N=Nc1c(O)[nH]c2c(Br)cc(Br)cc12
 : 13, 12
> CCN(CC)C(=O)Oc1ccc2c(ccn2Cc2ccccc2Cl)c1NC(=O)c1c(F)cccc1C(F)(F)F
 : -2, 3
> CCOc1ccc(C(=O)NC(C(=O)N2CCN(CC(=O)N3CCCCC3)CC2)C(C)C)cc1 (stereo unspecified)
 : 1, 2
> CCNC(=O)[C@@H]1C[C@H](N)CN1C1CCN(c2cccc(C)c2C)CC1
 : 1, 2
> CCOC(=O)c1nn(CC)c2c1CN(C(=O)Cn1nc(-c3ccccc3)c3ccccc3c1=O)CC2
 : 3, 9
> CCOCCCNC(=O)c1cc(NC(=O)Nc2cc(C(F)(F)F)cc(C(F)(F)F)c2)ccc1N1CCCCC1
 : -13, -10
> CCOC(=O)c1sc(NC(=O)CSc2nnc3ccccn23)c(C(=O)OCC)c1C
 : -6, -2
> CN(Cc1ccc2c(c1)OCO2)Cc1nc(-c2cccnc2)no1
 : -3, -2
> CCN(CC)S(=O)(=O)c1ccc(OC)c(N2CCN(S(=O)(=O)c3cc(Cl)cc(Cl)c3)CC2)c1
 : 16, 24
> O=C(O)CCc1nnc(SCc2ccc([N+](=O)[O-])cc2)[nH]c1=O
 : 1, 5
> CN(Cc1ccccc1)C(=O)c1coc(CN(Cc2ccccc2Cl)C2CC2)n1
 : 7, 2
> COc1cnc(-c2cnn(C)c2)c(NC(=O)c2cc3ccccc3s2)n1
 : 10, 11
> COCCCNC(=O)c1csc(CN(C(=O)Nc2ccc(OC)cc2)C(C)C)n1
 : 11, 17
> O=C(CNCCN1CCOCC1)N(Cc1ccccc1)Cc1ccco1
 : 8, -1
> C=c1onc(-c2ccccc2)c1=c1[nH]/c(=C\c2cccc(OC)c2OC)c(=O)o1
 : -7, -1
> CN1C(=O)N(Cc2cccnc2)C(=O)C12CCN(Cc1nccs1)CC2
 : -5, 11
> Cc1ccc(C2(O)CCN(C(=O)c3ccccc3-n3cncn3)CC2)nc1
 : -6, -5
> O=c1[nH]c2ccccc2nc1/C=C/c1cccc([N+](=O)[O-])c1
 : -4, -6
> CSc1ccc(C(=O)N(CCn2nc(C)cc2C)c2nc3ccccc3s2)cc1
 : -25, -15
> Cc1oc(C)c(C(=O)Nc2cccc(S(=O)(=O)N(C)C)c2)c1C
 : -3, -2
> COc1cccc2c1OCC(C(=O)NCc1cccnc1-n1ccnc1)C2 (stereo unspecified)
 : 1, 4
> CCCCC(=O)OC1(C(=O)CO)CCC2C3CCC4=CC(=O)CCC4(C)C3C(O)CC21C (stereo unspecified)
 : 7, 5
> Fc1ccccc1N1CCN(C2CCCN(Cc3ccc4c(c3)OCCO4)C2)CC1 (stereo unspecified)
 : 0, 6
> CCC(C#CCN1CCCC1)(CC)OCCC#N
 : 4, 1
> CC(C)(C)c1ccc(NC(=O)C(=O)c2ccc(C3CCCCC3)cc2)cc1
 : -14, -6
> O=C(NCc1cccnc1N1CCOCC1)Nc1cccc(OCC2CCCO2)c1 (stereo unspecified)
 : 8, 9
> O=C(COc1ccc(Cl)cc1)NNS(=O)(=O)c1ccccc1F
 : -2, 0
> Cc1ccc(C)c(-c2[nH]ncc2CNC[C@@H]2CCNC[C@H]2O)c1
 : -3, 6
> CC(C(=O)O)c1ccc(-c2ccccc2)c(F)c1 (stereo unspecified)
 : -8&-18&-2&-6, -2&-14&1&-3
> COc1ccc(OC)c(Nc2nc(NCCc3ccccc3)nc(N)c2[N+](=O)[O-])c1
 : -3, 2
> CCc1ccc(-c2cc(C(=O)Nc3ccc(C(=O)OC)cc3)c3ccccc3n2)cc1
 : -3, 1
> Cc1cccc(N=C2NN=C(c3ccc4c(c3)OCCO4)CS2)c1
 : 3, 7
> O=C(CN1CCCCC1=O)NCC(O)c1ccccc1F (stereo unspecified)
 : 7, 7
> CSCC(=O)N1CCc2ccc(NC(=O)c3ccncc3)cc2C1
 : 10, 17
> O=C(NCCc1ccccn1)C(C1CCCC1)N1CCN(C(=O)c2ccccc2F)CC1 (stereo unspecified)
 : 0, 4
> C=CCN(C)C(=O)c1sc2ccc3ccccc3c2c1Cl
 : 7, -3
> CN(C)c1nc2c(c(=O)[nH]1)CCN(C(=O)c1ccccc1-n1cccn1)C2
 : 2, 3
> CCOC(=O)N1CCC(N2CC(=O)N3CC[C@@H](O)C[C@H]3C2=O)CC1
 : 6, -3
> O=C(Nc1nc(-c2cccs2)cs1)C1CSCCS1 (stereo unspecified)
 : 0, 5
> CN1CCC(C2(O)c3ccccc3CCc3ccccc32)CC1
 : 0, 2

Rewritten as labelled records: 4 of the compounds above.
O=C(CN1CCCCC1=O)NCC(O)c1ccccc1F (stereo unspecified)
- NPYLR7 agonist max-min = 7
- NPYLR7 agonist = 7

CSCC(=O)N1CCc2ccc(NC(=O)c3ccncc3)cc2C1
- NPYLR7 agonist max-min = 10
- NPYLR7 agonist = 17

O=C(NCCc1ccccn1)C(C1CCCC1)N1CCN(C(=O)c2ccccc2F)CC1 (stereo unspecified)
- NPYLR7 agonist max-min = 0
- NPYLR7 agonist = 4

C=CCN(C)C(=O)c1sc2ccc3ccccc3c2c1Cl
- NPYLR7 agonist max-min = 7
- NPYLR7 agonist = -3

The list goes on.
Fields – NPYLR7 agonist max-min, NPYLR7 agonist
> N#CCSc1nc2ccc(Br)cc2c(=O)n1-c1ccccc1
 : -17, -18
> COc1cccc(CC2(CO)CCCN(Cc3ccc(CN4CCCCC4)s3)C2)c1 (stereo unspecified)
 : 12, 11
> O=c1cc(-c2cccnc2)nc(-c2ccc(CN3CCCNCC3)cc2)[nH]1
 : -11, -3
> CC(N)=C(C#N)C(=O)COC(=O)C12CC3CC(CC(Br)(C3)C1)C2
 : 2, -1
> NC1CCN(c2ccccc2C(=O)N2CCN(c3ccc(Cl)cc3)CC2)CC1
 : 12, -1
> CC(C)CCn1c(CNC(=O)C2CC3(CCNCC3)CN2)nc2cccnc21 (stereo unspecified)
 : 2, 8
> CCOC(=O)CCCSc1nnc(NC(=O)CCc2ccccc2)s1
 : 31, 35
> COc1cc(C)c(Cl)cc1S(=O)(=O)NCc1cccs1
 : -19, -14
> CN[C@H]1[C@@H](O)[C@H](O[C@H]2[C@@H](O)[C@@H](OC3OC(CN)=CCC3N)[C@H](N)C[C@@H]2N)OC[C@@]1(C)O (stereo partly specified)
 : -8, -3
> Cc1cc(NC(=O)Cn2ncnc2-c2cccc(C#N)c2)n(C)n1
 : 3, 5
> CCCS(=O)(=O)N1CCCC1C(=O)NC1CCCC(C)C1C (stereo unspecified)
 : -9, 2
> CCOc1ccc(-c2cc(C(=O)NCC3CCCO3)c3ccccc3n2)cc1 (stereo unspecified)
 : 0, 10
> c1ccc2c(c1)CCN2CCNC1CCCNC1 (stereo unspecified)
 : 6, 10
> COCCN(Cc1csc(COc2c(OC)cccc2OC)n1)C(=O)Cc1ccccc1
 : 17, 4
> CN1CCN(CC(=O)N2c3ccccc3C(=O)Nc3cccnc32)CC1
 : -10&3&-4&32, -6&-11&-2&0
> CC(CS(=O)(=O)N(C)C(C)CC#N)c1ccccc1 (stereo unspecified)
 : 0, 2
> Cc1sc2ccccc2c1S(=O)(=O)NC(C(N)=O)C(C)C (stereo unspecified)
 : 0, 3
> Cc1nn(C)c(C)c1CCC(=O)N1CCCC(Nc2ccc(C(C)C)cc2)C1 (stereo unspecified)
 : -2&0, 1&2
> CC(=O)Oc1ccc2c(c1OC(C)=O)C(=O)c1ccccc1C2=O
 : 4, 5
> CCN(CC)C(=O)Cn1c(=O)c2c(OC)c(C)cnc2n(C)c1=O
 : -1, 1
> CC1(Cc2ccc(F)c(Cl)c2)C(=O)Nc2ccc(S(=O)(=O)NC3CCCCC3)cc21 (stereo unspecified)
 : 2, 5
> O=C(Cn1cnc([N+](=O)[O-])n1)Nc1cc(Oc2cccc(Cl)c2)cc([N+](=O)[O-])c1
 : -18, -13
> CCc1cc(N2CCN(c3ccccc3F)CC2)nc(SCc2ccc(C(=O)N3CCOCC3)o2)n1
 : 8, 6
> CCOC(=O)C1CCN(C(c2cccc(Br)c2)C2Sc3nc(CC)nn3C2=O)CC1 (stereo unspecified)
 : 14, -3
> CCOc1ccccc1C(=O)Nc1ccc(N2CCN(C(=O)c3cccnc3SCC)CC2)nc1
 : 4, -4
> CCC#CCn1nc(C2CCNCC2)n(Cc2ccccc2)c1=O
 : 3, 5
> C[C@H](C(N)=O)n1cnc(-c2ccccc2)c1-c1cccn1-c1ccccn1
 : 12, 7
> Fc1ccccc1-c1nccn1Cc1ccccc1-n1ccnc1
 : 10, 11
> Cn1c(=O)c2c([nH]c(=O)n2C)n(Cc2ccccc2)c1=O
 : -12, -11
> N=C(N)S/C=C\C(=O)O
 : -6, -5
> NS(=O)(=O)c1ccc(CNC2CC(=O)N(c3ccc(F)cc3)C2=O)cc1 (stereo unspecified)
 : -3, -1
> Cc1ccc(S(=O)(=O)N(CC(=O)N2CCc3sccc3C2c2ccc(F)cc2)C(C)C)cc1 (stereo unspecified)
 : 4, -3
> CN1CCN(c2ccc(-c3ccccc3)nn2)CC1C(=O)O (stereo unspecified)
 : 2, 2
> COC(=O)c1ccccc1OC1OC(CO)C(O)C(O)C1NC(C)=O (stereo unspecified)
 : 7, 9
> Cc1ccc(CN2CCC2(C)C(=O)Nc2ccc(C)c(O)c2)cc1 (stereo unspecified)
 : 4, 6
> CC1CCc2c(sc(NC(=O)CSc3nncn3C)c2C#N)C1 (stereo unspecified)
 : -4, -3
> CC1(C(=O)NS(=O)(=O)c2cccc(Cl)c2)CCN1C(=O)c1cccc2ccccc12 (stereo unspecified)
 : 0, 2
> O=S1(=O)CCC(Nc2ncnc3sc4c(c23)CCCC4)C1 (stereo unspecified)
 : 0, 0
> COc1cc(OC)c2cc(C(=O)Nc3cccc(C)c3)[nH]c2c1OC
 : -1, 7
> Cc1[nH]c2c(C(=O)N3CCOc4ccc(CN5CCN(c6ccccn6)CC5)cc4C3)cccc2c1C
 : 5, 7
> CCOc1ccc(CC(CNS(=O)(=O)CC)C(N)=O)cc1 (stereo unspecified)
 : 2, 2
> O=C(CCSCc1ccccn1)NCc1ccc(Br)s1
 : 3, 1
> CC(C)NC(=O)N1CCCC(Cn2cc(-c3ccc(F)cc3)nn2)C1 (stereo unspecified)
 : -2, 6
> Cc1cn(CCNC(=O)C(c2cccc(F)c2)N(C)C)nn1 (stereo unspecified)
 : -6, -2
> CCc1ccc(CN(C)Cc2cnc3c(-c4ccccc4)cnn3c2)nc1
 : 7, 21
> CCOC(=O)CSc1nccn2nc(-c3ccc(OCC)c(Cl)c3)cc12
 : 2, 3
> Cc1ccc(NC(=O)N(Cc2c(-c3ccccc3F)noc2N2CCOCC2)CC2CCCO2)cc1 (stereo unspecified)
 : -1, -4
> COc1ccc2[nH]c(CNCc3cccnc3N3CCOCC3)c(C)c2c1
 : 3, 24
> O=C(CSc1nc2c([nH]c3ccccc32)c(=O)n1-c1ccccc1F)NCC1CCCO1 (stereo unspecified)
 : -3, -9
> CCOC(=O)C(Cc1cccc(N2CCN(C(=O)c3c(Cl)cccc3Cl)CC2)c1)OC (stereo unspecified)
 : 3, -2
> Cn1c(CC2CCNCC2)nnc1CN1CCCCC1c1cccnc1 (stereo unspecified)
 : -3, 13
> COC(=O)c1c(NC(=O)CCCl)sc2c1CCCC2
 : -13, -8

Some of the compounds tested, so the mix of outcomes need not match the whole.
